eIF4H inh: inhibitors of RNA binding by human eIF4H; Q15056; eIF4H fluorescence polarization binding assay; inhibition, % at 35 µM; 290,000 tested, 0.94% active; AID 2012;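 active means 50% or more with normal probe brightness, or confirmed in later tests; about a fifth of its hits are not listed in these tables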;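 further: calls also rest on retests at 20 µM and on dose response follow-up; 0% = protein and probe with vehicle and 100% = probe without protein; strong numbers were not always called active; many hits fall short of the cut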
CSC inhib: cancer stem cell inhibition; cancer stem cell-like cells viability, luminescence; 300,000 tested, 1.1% active; AID 2717; inhibition, % at 7.5 µM;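 active means mean at 75% or more and at least half the replicates too; tested in HMLE shEcad cells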;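 further: 0% = median of negative and 100% = median of positive control wells; the first replicate is given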
PABP FP inh: PABP-poly(A) binding inhibition; P11940; PABP-poly(A) RNA binding, fluorescence polarization; inhibition, % at 35 µM; 290,000 tested, 1% active; AID 2014;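 active means 50% or more with normal probe brightness, or confirmed in later tests; about a fifth of its hits are not listed in these tables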;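 further: calls also rest on retests at 20 µM and on dose response follow-up; controls were probe without protein and protein plus probe with vehicle; some compounds called inactive have numbers as strong as hits; many hits fall short of the cut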
Target sequence (P11940 whole entry, looked up): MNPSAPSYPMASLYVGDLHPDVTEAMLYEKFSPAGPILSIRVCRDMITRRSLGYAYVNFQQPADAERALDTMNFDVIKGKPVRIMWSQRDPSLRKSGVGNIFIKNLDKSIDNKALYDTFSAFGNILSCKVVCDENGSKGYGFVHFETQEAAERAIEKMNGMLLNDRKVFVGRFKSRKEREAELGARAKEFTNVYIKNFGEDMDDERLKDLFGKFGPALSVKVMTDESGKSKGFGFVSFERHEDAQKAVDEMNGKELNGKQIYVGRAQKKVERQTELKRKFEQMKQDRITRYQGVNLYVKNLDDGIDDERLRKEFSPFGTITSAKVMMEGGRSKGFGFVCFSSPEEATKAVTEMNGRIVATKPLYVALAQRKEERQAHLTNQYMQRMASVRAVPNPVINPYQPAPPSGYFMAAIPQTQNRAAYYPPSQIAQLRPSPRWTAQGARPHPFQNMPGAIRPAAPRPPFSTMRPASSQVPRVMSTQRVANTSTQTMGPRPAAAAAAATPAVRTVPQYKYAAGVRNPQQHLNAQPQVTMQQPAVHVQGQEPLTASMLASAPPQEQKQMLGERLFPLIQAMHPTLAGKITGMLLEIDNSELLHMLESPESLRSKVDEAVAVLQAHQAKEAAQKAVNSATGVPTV
Rce1 inh: inhibitors of yeast Ras-converting enzyme | Q03530 | yeast membranes, quenched prenylated peptide cleavage fluorescence | calls only | 290,000 tested, 0.27% active | AID 2563;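 active means fall in fluorescence gain of 50% or more versus controls, with final raw signal at or below 3038400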;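 further: plate controls were neutral control wells for no effect and wells lacking membranes for full effect; tested at 10 µM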
MT1-MMP act inh: MT1-MMP (human) activation inhibition; HT1080 RFP-PRO-GFP cells, GFP/RFP ratio fluorescence, overnight; percent of plate control window, DMSO zero; GFP/RFP ratio change, % at 20 µM; 360,000 tested, 0.061% active;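 active means GFP/RFP ratio change of at least 30% with cell ATP level not reduced by more than half and red fluorescence within 50% of control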; further: strong numbers were not always called active
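Assay system – RFP-PRO-GFP reporter HT1080 cells · Compound dosing – single dose of 20 µM compound, 1% DMSO final · Incubation – overnight compound exposure at 37 °C · Measure – GFP/RFP fluorescence ratio · Benchmarks – DMSO wells and RFP-L50D-GFP cells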
UUG fidelity: modulators of start codon recognition fidelity in yeast; S. cerevisiae UUG-firefly luciferase reporter, luminescence/redox ratio; activity score, % at 18.7 µM; 350,000 tested, 0.13% active; AID 602363;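 active means replicate mean at a twofold rise or more, about +100% in these data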;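 further: firefly luciferase made from a UUG start codon reports start codon fidelity; reporter light over untreated wells divided by growth signal over untreated wells; some hits fall short of that in this replicate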
Env fusion inh: inhibitors of HIV Env-mediated cell fusion; HeLa-JRFL Env/CEM21 cell fusion, luciferase; inhibition, % at 12.3 µM; 360,000 tested, 1.1% active; AID 651610;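 active means mean replicate inhibition score of at least 50 and every replicate individually at or above 50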;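 further: 0% = plate neutral controls and 100% = maraviroc near 300 nM; one replicate is shown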
eIF4H inh retest: recorded beside eIF4H inh, whose call it bears; inhibition, %; compound at 20 µM; confirmation average;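 mean of two retest wells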
PABP FP inh retest: recorded beside PABP FP inh, whose call it bears; inhibition, %; compound at 20 µM; confirmation repeats;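 mean of two retest wells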
MT1-MMP act inh RFP: recorded beside MT1-MMP act inh, whose call it bears; RFP signal change, %; measured here: RFP expression control read;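 0 = vehicle wells; hits needed this value within 50% of zero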
An asterisk follows results filed as active; i = inactive; . = no result given; + = active, no number; & = joins results of further samples.

SMILES	eIF4H inh	CSC inhib	PABP FP inh	Rce1 inh	MT1-MMP act inh	MT1-MMP act inh RFP	UUG fidelity	Env fusion inh	others
CC(=O)Nc1cc(Br)ccc1O	3	-3	5	i	3	5	-19	6
CC1(C(=O)NS(=O)(=O)c2ccccc2C(F)(F)F)CCN1C(=O)CC1CCCC1 (stereo unspecified)	.	.	.	.	1	5	-22	-15
CC(=O)c1c[nH]c(C(=O)NCc2cccc(C(F)(F)F)c2)c1	-1	1	-2	i	6	5	-24	-11
CCc1nnc(NS(=O)(=O)c2ccc(NC(=O)Nc3ccc(OC)cc3)cc2)s1	12	-11	7	i	12	-5	9	5
COc1ccccc1C(=O)NC(=O)COC(=O)CCS(=O)(=O)c1ccc(C)cc1	.	-11	.	i	-7	-3	-6	3
O=C(CCCCC(=O)Nc1ccc(F)cc1F)Nc1ccc(F)cc1F	.	8	.	i	2	-1	-13	-9
CC1Nc2ccccc2C(=O)N1NS(=O)(=O)c1ccccc1 (stereo unspecified)	-10	6	-10	i	1	6	.	13
COc1cccc(/C=C/C(=O)NNC(=O)c2ccncc2)c1OC	.	8	.	.	-3	2	-8	-9
CC(C)[C@H](NC(=O)c1ccccc1)C(=O)OCC(=O)NCc1ccc2c(c1)OCO2	.	-4	.	.	2	1	2	-33
CCOC(=O)c1ccc(N2NC(=O)/C(=C/c3ccc(OC(=O)c4ccco4)c(OC)c3)C2=O)cc1	31	45	-4	i	.	.	.	-10
COC(=O)c1ccc(CN2CCC(CO)(CCOc3ccccc3)CC2)cc1	-2	-11	-10	i	1	-9	-9	3
Cc1ccc(N(CC(=O)Nc2ccc3c(c2)OCCO3)S(C)(=O)=O)cc1	5	3	-2	i	1	4	.	-7
COc1cccc(OC2(C)CCN(Cc3ccc(-c4ccccn4)cc3)C2)c1 (stereo unspecified)	.	.	.	.	3	5	-3	25
Cc1ccc(C)c(OCc2cc(C(=O)N3CCNC(=O)C3)no2)c1	-14	12	-6	i	1	4	-8	-13
CCCCN(C(C)=O)c1ccc(S(=O)(=O)NC2=NCCCCC2)cc1NC(C)=O	.	-19	.	.	0	1	-8	.

Brought forward from above: 3 compounds; new compounds follow.
SMILES	eIF4H inh	CSC inhib	PABP FP inh	Rce1 inh	MT1-MMP act inh	MT1-MMP act inh RFP	UUG fidelity	Env fusion inh	others
COc1cccc(OC2(C)CCN(Cc3ccc(-c4ccccn4)cc3)C2)c1 (stereo unspecified)	.	.	.	.	3	5	-3	25
Cc1ccc(C)c(OCc2cc(C(=O)N3CCNC(=O)C3)no2)c1	-14	12	-6	i	1	4	-8	-13
CCCCN(C(C)=O)c1ccc(S(=O)(=O)NC2=NCCCCC2)cc1NC(C)=O	.	-19	.	.	0	1	-8	.
COc1ccc(CCNC(=O)C2CC(=O)N(c3ccc(F)cc3)C2)cc1OC (stereo unspecified)	6	-12	3	i	-2	-1	-3	30
O=C(Nn1c(-c2ccccc2)nc2ccccc2c1=O)C1CCC1	2	-4	-10	i	0	-8	-19	-75
COc1ccc(NC(=O)NCc2cccn2C)c(OC)c1	-4	.	-9	i	0	4	-15	.
CC1=CC(=C(C#N)C#N)C=C(C)N1CCN1CCNCC1	-7	11	3	i	-3	-1	.	-18
Clc1cccc(Cl)c1Cn1cnc2c(NCc3ccco3)ncnc21	-6	50	-6	i	-4	-3	-11	.
On1c2c(c3c4nonc4ccc31)CCCC2	77*	-10	59*	i	.	.	.	.
c1csc(CNCCCN2CCOCC2)c1	-10	-7	11	i	8	1	.	.
C[C@@H]1CN([C@@H](C)CO)C(=O)c2cccc(NS(C)(=O)=O)c2O[C@H]1CN(C)Cc1ccc(C(=O)O)cc1	.	-14	.	.	-1	3	-3&-8	-22
CC(O)CNc1ccc([N+](=O)[O-])cc1S(=O)(=O)N1CCOCC1 (stereo unspecified)	3	-7	-15	i	-1	3	-2	10
O=C1c2ccccc2NC(c2ccccc2Cl)N1N=C1CCCCCC1 (stereo unspecified)	-8	5	3	i	0	-6	.	.
NC(=S)N=Nc1c(O)[nH]c2ccccc12	4	-2	-3	i	2	8	-16	-433
CN(CC(=O)NC1CCN(Cc2ccccc2)CC1)S(=O)(=O)c1ccc(Cl)s1	.	-7	.	.	6	-3	27	31
N/C(=N/O)c1nc(N2CCCC2)nc(N(c2ccccc2)c2ccccc2)n1	-6	-26	-10	i	-1	-4	-13	.
CCC(=O)Nc1cc(-c2nn(CC(=O)N3CCCCC3)c(=O)c3ccccc23)ccc1N1CCOCC1	3	-8	2	+	0	2	4	-8
Cc1cc(C)cc(C(O)c2ncc(-c3ccc(Cl)cc3)[nH]2)c1 (stereo unspecified)	.	.	.	.	2	-2	-3	3
C=CCOc1ccccc1CN1CCSCC1	-2	-11	24	i	-2	0	-3	3
CC(=O)c1ccc(OCC(=O)N2CCN(S(=O)(=O)c3ccc(Br)s3)CC2)cc1	.	.	.	.	-1	-11	-13	5
CCCC(=O)Nc1nc2c(c(=O)[nH]1)CCCC2	-16	-7	8	i	-2	1	-9	.
CN(C(=O)c1cc(-n2cnnc2)ccc1Cl)c1ccccc1	-2	-4	-2	i	0	2	.	8
CC1CN(S(=O)(=O)c2ccc(-c3nc4ccccc4s3)cc2)CC(C)O1 (stereo unspecified)	2	-4	-2	i	-2	-9	-8	.
O=C(/C=C/c1ccc2ccccc2c1)c1ccoc1	-3	.	8	i	-5	4	-11	.
CC(Sc1nnc(C2CC2)n1Cc1ccccc1)C(=O)N1CCNC1=O (stereo unspecified)	.	-9	.	.	0	2	-5	-11
Cc1ccc(SCc2cc(=O)[nH]c(N3CCN(C)CC3)n2)cc1	-4	-5	-8	i	0	-1	-8	.
COc1ccc(CCC(=O)OCC(=O)Nc2ccc(OC)c(OC)c2)cc1OC	-11	-6	-6	i	4	5	-15	-5
O=C(c1ccco1)N1CCN(C(=O)c2cc(-c3ccccc3F)no2)CC1	-13	-8	-2	i	2	1	-17	-45
CC(=O)c1ccc(O)c(CSc2nncn2C)c1	1	-4	47	i	5	3	.	10
COc1ccc(Cn2c(=S)[nH]c3ccccc3c2=O)cc1	0	-3	3	i	0	0	4	1
CC(C)(C)C(O)CN1CCCC1 (stereo unspecified)	-5	5	11	i	-1	4	-18	1
CCc1nc2ccc(C(=O)N3CCN(C(=O)c4ccco4)CC3)cn2c1N(C)C(=O)Nc1ccccc1OC	.	.	.	.	-5	3	-9	11
Cc1c(C(=O)OCC(=O)NC(=O)NC2CCCCC2)cccc1[N+](=O)[O-]	.	-8	.	.	3	-3	5	3

Arranged by heavy-atom count (rising): part of the list above
SMILES	eIF4H inh	CSC inhib	PABP FP inh	Rce1 inh	MT1-MMP act inh	MT1-MMP act inh RFP	UUG fidelity	Env fusion inh	others
CC(C)(C)C(O)CN1CCCC1 (stereo unspecified)	-5	5	11	i	-1	4	-18	1
CN(C(=O)c1cc(-n2cnnc2)ccc1Cl)c1ccccc1	-2	-4	-2	i	0	2	.	8
Cc1ccc(SCc2cc(=O)[nH]c(N3CCN(C)CC3)n2)cc1	-4	-5	-8	i	0	-1	-8	.
CC(=O)c1ccc(OCC(=O)N2CCN(S(=O)(=O)c3ccc(Br)s3)CC2)cc1	.	.	.	.	-1	-11	-13	5

Remaining list, next part.
SMILES	eIF4H inh	CSC inhib	PABP FP inh	Rce1 inh	MT1-MMP act inh	MT1-MMP act inh RFP	UUG fidelity	Env fusion inh	others
COc1ccc(NC(=O)CCN2CCN(S(=O)(=O)c3ccc(Br)cc3)CC2)cc1	-8	-7	-3	i	2	0	-6	9
O=C(O)/C=C/C(=O)Nc1cc(F)ccc1F	0	-5	-3	i	3	-1	-12	-9
COc1cccc(NC(=O)Cc2nnc(SCC(=O)NC(C)c3ccccc3)n2C)c1 (stereo unspecified)	1	-5	-3	i	2	9	-20	-25
Cc1ccc(CC(=O)NCc2cccnc2)cc1	5	-18	33	i	.	.	.	14
O=C(NCCc1c[nH]c2ccccc12)c1ccc([N+](=O)[O-])cc1	10	4	-10	i	1	-3	.	-12
O=C(Nc1ncc2c(n1)-c1ccccc1OC2)c1ccccc1Cl	11	11	1	i	4	-5	-9	-12
CCOc1ccc(S(=O)(=O)N2CCOCC2)cc1NC(=O)CSCc1c(C)noc1C	.	.	.	i	2	2	.	17
Cn1c(=O)c2cc3c(nc2n(C)c1=O)CC(c1ccccc1)CC3=O (stereo unspecified)	1	-14	12	i	0	-4	-21	0
CC1(c2ccccc2)NC(=O)N(CC(=O)NCc2cccc(Cl)c2)C1=O (stereo unspecified)	-11	0	1	.	-2	-4	.	-5
CCCC(=O)N1CCCC1(C)C(=O)Nc1ccc2c(c1)CCN2C(C)=O (stereo unspecified)	.	.	.	.	4	6	-14	-13
CC(NC(=O)/C(C#N)=C1\N=C(NC(=O)c2cccs2)c2ccccc21)c1ccccc1 (stereo unspecified)	13	-3	-2	i	-28	5	.	.
Cc1cc(NC(=O)CSc2nc3c(c(=O)n2Cc2ccccc2)SC(C)C3)no1 (stereo unspecified)	4	-4	12	i	-3	-8	-2	-18
Cc1ccc(SC[C@H](C)CN2CC[C@H](C)CCC2=O)cc1	-1	-5	12	i	-3	2	-4	20
O=C(O)c1ccc(/C=N/NC(=O)c2ccc(F)cc2)cc1	-4	-2	-7	i	2	6	-19	-6
COc1cccc(C(=O)c2c(C)c(CCC#N)n3ccccc23)c1	52	-12	10	i	-2	-1	-24	-9	eIF4H inh retest=49;PABP FP inh retest=40
O=C(c1cc(-c2ccccc2Cl)nc2ccc(Br)cc12)N1CCN(c2ccccn2)CC1	67	16	2	i	-9	-29	-1	10	eIF4H inh retest=38;PABP FP inh retest=2
COC(=O)c1ccccc1NC(=O)CNc1ccc(F)c(S(=O)(=O)N2CCOCC2)c1	.	-14	.	.	-2	-2	2	7
Cc1ccc(S(=O)(=O)CCC(=O)N2CCN(c3ccccc3F)CC2)cc1	3	-2	1	i	5	1	-2	4
O=C(NC1CCS(=O)(=O)C1)c1ccc(N2CCCCC2)c([N+](=O)[O-])c1 (stereo unspecified)	-7	-5	-7	i	5	5	-3	4
CCOC(=O)c1cc(-c2ccccc2)n(CC(=O)NC(C)(C)C)c1C	-12	-14	2	i	-5	-1	.	7
CCCCN(CC)C(=O)c1ccc(-c2ccccc2)cc1	1	.	2	i	-3	1	-1	-3
Cc1ccc(NC(=O)C(c2ccc(Cl)cc2)N2CCCCC2)cc1 (stereo unspecified)	-5	.	14	.	1	-3	-13	-301
CC(=O)C(CC(=O)N1CCCc2ccccc21)C(=O)Nc1ccc(F)cc1 (stereo unspecified)	4	-4	7	i	-11	1	-17	13
O=C(NC1CCCc2c1cnn2-c1cc(F)cc(F)c1)c1ccncc1 (stereo unspecified)	-11	-1	1	i	-9	-2	-8	0

Copied from above (2 entries):
SMILES	eIF4H inh	CSC inhib	PABP FP inh	Rce1 inh	MT1-MMP act inh	MT1-MMP act inh RFP	UUG fidelity	Env fusion inh	others
CC(=O)C(CC(=O)N1CCCc2ccccc21)C(=O)Nc1ccc(F)cc1 (stereo unspecified)	4	-4	7	i	-11	1	-17	13
O=C(NC1CCCc2c1cnn2-c1cc(F)cc(F)c1)c1ccncc1 (stereo unspecified)	-11	-1	1	i	-9	-2	-8	0

Assay outcomes deposited in PubChem by several laboratories.
